Assay outcomes (PubChem BioAssay)
DUX4 inh – blocks DUX4-driven transcriptional activation; 293T-iDUX4 ZSCAN4-Gaussia luciferase reporter, 24 h; active compounds read low; activity change, negative = inhibition, % (no concentration beside the values); hit rate 0.8% among 37,000; AID 1224904;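 active = -10% or lower and over 25 points stronger than a control reporter; inconclusive = -10% or lower with a smaller gap; inactive = above -10%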;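 note: 0% = median of neutral control wells and -100% = median of positive control wells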
DUX4 inh difference – also measured in DUX4 inh; calls as there; Gaussia minus Italica difference, %; measured here: selective DUX4 reporter inhibition;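 worked out from the two reporters; negative = selective loss of the DUX4 reporter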
DUX4 inh control – also measured in DUX4 inh; calls as there; activity change, negative = inhibition, %; measured here: Italica tet-on control reporter;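 0 = neutral control and -100 = positive control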
Active calls of the source: *; ? = inconclusive; / = not tested or not shown; & = joins results of further samples. This is a subset, so the mix of outcomes need not match the whole.

The line under a structure holds: DUX4 inh control, DUX4 inh, DUX4 inh difference
COc1cccc(-c2ccc3n(c2=O)C[C@@H]2[C@@H](CO)[C@H](C(=O)N(C)C)[C@H]3N2Cc2cncnc2)c1
 : 1.6, 7, 5
CCNC(=O)Nc1ccc2c(c1)C(=O)N(C)[C@H]1CC[C@H](CC(=O)NCc3ccccc3F)O[C@H]1CO2
 : -4.5, 3, 7
COCC(=O)N1CC(=O)N2[C@H](CO)[C@@H](c3ccc(C#Cc4cccnc4)cc3)[C@H]2C1
 : 7.4, -1, -8
COCCNC(=O)C[C@H]1C[C@H]2c3cc(NC(=O)c4cccnc4)ccc3O[C@H]2[C@@H](CO)O1
 : 5.9, 5, -1
C/C=C/c1ccc2c(c1)O[C@H](CN(C)Cc1ccccc1F)[C@H](C)CN([C@@H](C)CO)S2(=O)=O
 : -0.2, 3, 3
CO[C@H]1CN(C)C(=O)c2ccc(NS(=O)(=O)c3ccccc3C)cc2OC[C@H](C)N(C)C[C@@H]1C
 : 4.2, 3, -1
COCC(=O)N(C)C[C@H]1Oc2ncc(C#Cc3ccncc3)cc2C(=O)N([C@@H](C)CO)C[C@@H]1C
 : -1.3, 1, 2
CNC[C@@H]1OCCCC[C@@H](C)Oc2ccc(NC(=O)CCC(F)(F)F)cc2C(=O)N([C@H](C)CO)C[C@@H]1C
 : -1.9, 2, 4
C/C=C/c1ccc([C@H]2[C@@H](CO)N(S(C)(=O)=O)[C@@H]2CN(CC)C(C)=O)cc1
 : 2.5, -2, -4
CN(C)CC(=O)Nc1ccc2c(c1)[C@H]1C[C@H](CC(=O)NCc3cccc(F)c3)O[C@H](CO)[C@H]1O2
 : 3.5, -5, -8
O=C(Nc1ccc2c(c1)[C@@H]1C[C@H](CC(=O)N3CCc4ccccc4C3)O[C@@H](CO)[C@@H]1O2)c1ccc2c(c1)OCO2
 : /, ?, /
COc1cccc(S(=O)(=O)N[C@@H]2C=C[C@H](CC(=O)NCc3ccncc3)O[C@H]2CO)c1
 : -2.7, 0, 3
CN1C(=O)c2cc(NC(=O)C3CCOCC3)ccc2OC[C@H]2O[C@@H](CC(=O)NCc3ccc4c(c3)OCO4)CC[C@@H]21
 : -2.2, -2, 0
C[C@@H]1CCCCO[C@@H](CN(C)S(=O)(=O)c2cn(C)cn2)[C@@H](C)CN([C@H](C)CO)C(=O)c2cc(N(C)C)ccc2O1
 : 4.7, 2, -3
O=C(NCc1ccc(F)cc1)[C@@H]1[C@@H](CO)[C@@H]2Cn3c(cccc3=O)[C@H]1N2C(=O)Cc1ccccn1
 : 2.3, 0, -2
COc1ccc([C@@H]2C/C=C\C[C@@H](c3ccccc3)NC(=O)CCC(=O)N2)c(OC)c1
 : -0.9, 2, 2
O=S(=O)(c1ccc(F)cc1)N1[C@@H]2CNC[C@H]1C2c1ccc(-c2cccnc2)cc1 (stereo not given in full)
 : 14&-4.6, 5&10, -9&14
O=S(=O)(c1ccc(F)cc1)N1CC[C@H]2[C@H](CO)Nc3ccc(Br)cc3[C@H]21
 : 1.3, -3, -4
COC(=O)[C@@H]1[C@@H](CO)[C@@H]2Cn3c(ccc(-c4ccc(F)cc4)c3=O)[C@@H]2N1C(=O)C1CC1
 : -1.4, 4, 5
C/C=C/c1ccc([C@H]2[C@@H](CO)N(C(=O)C3CCCC3)[C@H]2CNCCC)cc1
 : -0.7, -2, -1
COc1cccc(-c2ccc3n(c2=O)C[C@H]2[C@H](CO)[C@@H](C(=O)NC4CCCC4)N[C@@H]32)c1
 : 2.5, -4, -7
C[C@H](NC(=O)C[C@H]1C=C[C@@H](NC(=O)c2cccnc2)[C@@H](CO)O1)c1ccccc1
 : 0.9, 3, 2
CN(C)C(=O)C[C@H]1CC[C@H]2[C@@H](COC[C@@H](O)CN2CC2CCCCC2)O1
 : -9.8, -6, 4
COc1cccc(NC(=O)Nc2ccc3c(c2)C(=O)N(C)C[C@@H](OC)[C@@H](C)CN(CC2CC2)[C@@H](C)CO3)c1
 : 10.0, -6, -16
CN1c2ccc(-c3cccc(F)c3)cc2[C@@H]2[C@@H](CCN2C(=O)c2ccc3c(c2)OCO3)[C@@H]1CO
 : /, ?, /
COc1ccc(NC(=O)Nc2ccc3c(c2)C(=O)N([C@@H](C)CO)C[C@H](C)[C@H](CN(C)S(=O)(=O)c2cccs2)OCCCC[C@H](C)O3)cc1
 : -1.0, 1, 2
O=C(CC1CC1)N1CC(=O)N2[C@@H](CO)[C@H](c3ccc(C#Cc4cccc(F)c4)cc3)[C@@H]2C1
 : -0.6, -9, -9
Cc1cccc(S(=O)(=O)N2CCCCN3[C@H](CO)[C@H](c4ccc(C#C[C@H](C)O)cc4)[C@H]3C2)c1
 : /, ?, /
O=C(CC1CC1)N1[C@H](CO)[C@@H](c2ccccc2)C12CN(S(=O)(=O)c1ccccc1)C2
 : 0.5, -2, -2
C[C@@H]1CN([C@H](C)CO)C(=O)c2cc(NC(=O)NC3CCCCC3)ccc2O[C@H]1CN(C)Cc1ccncc1
 : 6.8, 2, -5

2 of the compounds above, bar-delimited.
compound | DUX4 inh control | DUX4 inh | DUX4 inh difference
COc1cccc(-c2ccc3n(c2=O)C[C@H]2[C@H](CO)[C@@H](C(=O)NC4CCCC4)N[C@@H]32)c1 | 2.5 | -4 | -7
Cc1cccc(S(=O)(=O)N2CCCCN3[C@H](CO)[C@H](c4ccc(C#C[C@H](C)O)cc4)[C@H]3C2)c1 | / | ? | /

More entries.
The line under a structure holds: DUX4 inh control, DUX4 inh, DUX4 inh difference
CCCNC(=O)N1C[C@@H]2N[C@H](C1)C2c1ccc(-c2ccccc2C)cc1 (stereo not given in full)
 : 9.3, ?, -10
CC=Cc1ccc2n(c1=O)C[C@H]1[C@H](CO)[C@@H](C(=O)NCCc3ccncc3)[C@@H]2N1CCC(F)(F)F (mixture of isomers)
 : 0.8, 5, 4
COc1cccc(CN2CC3(CN(C)C3)c3c(n(C)c4cc(OC)ccc34)[C@H]2CO)c1
 : -0.9, 2, 3
O=C(C[C@H]1C[C@H]2c3cc(NC(=O)C4CCOCC4)ccc3O[C@H]2[C@@H](CO)O1)NCc1ccc2c(c1)OCO2
 : -0.6, 2, 3
C[C@@H]1CN([C@@H](C)CO)S(=O)(=O)c2ccc(-c3ccc(C#N)cc3)cc2O[C@@H]1CN(C)C(=O)C1CC1
 : -0.3, -2, -1
O=C1CN(S(=O)(=O)c2cccc(F)c2)C[C@H]2[C@@H](c3ccc(C4=CCCC4)cc3)[C@H](CO)N12
 : 9.3, 7, -3
O=C(C[C@H]1C=C[C@@H](NC(=O)C2CCC2)[C@H](CO)O1)NCc1ccccc1Cl
 : 0.8, 2, 1
CO[C@H]1CN(C)C(=O)c2ccc(NC(=O)c3ccc(F)cc3)cc2OC[C@@H](C)N(C)C[C@@H]1C
 : 1.7, 0, -1
COc1ccc(-c2ccc([C@@H]3[C@@H](CO)N4C(=O)CN(C(=O)Cc5ccccn5)C[C@H]34)cc2)cc1
 : 7.7, 10, 2
N#C[C@H]1[C@H](c2ccc(-c3cccnc3)cc2)[C@H](CO)N1C(=O)C1CCC1
 : 1.8, 0, -2
C[C@@H]1CN([C@@H](C)CO)C(=O)Cc2cc(NS(C)(=O)=O)ccc2O[C@H]1CN(C)C(=O)Nc1ccccc1
 : 1.9, -6, -8
O=C(c1cccnc1)N1CCCCN2[C@@H](CO)[C@H](c3ccc(C#Cc4ccccn4)cc3)[C@@H]2C1
 : 13, -3, -16
CS(=O)(=O)N1CCCCN2[C@H](CO)[C@H](c3ccc(Br)cc3)[C@H]2C1
 : -4.9, 0, 5
C[C@@H]1CN([C@@H](C)CO)C(=O)CCCn2cc(nn2)CO[C@H]1CN(C)C(=O)Nc1cccc(F)c1
 : 6.0, 3, -3
CC(C)[C@H]1COCc2cn(nn2)CCCCC(=O)N1
 : 0.9, 1, 0

Reformatted with each value named: two of the compounds above.
> C[C@@H]1CN([C@@H](C)CO)C(=O)Cc2cc(NS(C)(=O)=O)ccc2O[C@H]1CN(C)C(=O)Nc1ccccc1
  DUX4 inh control: 1.9 | DUX4 inh: -6 | DUX4 inh difference: -8
> COc1cccc(CN2CC3(CN(C)C3)c3c(n(C)c4cc(OC)ccc34)[C@H]2CO)c1
  DUX4 inh control: -0.9 | DUX4 inh: 2 | DUX4 inh difference: 3

Next compounds follow:
The line under a structure holds: DUX4 inh control, DUX4 inh, DUX4 inh difference
CC(C)NC(=O)N1CC2(C1)[C@H](c1ccccc1)[C@H](CO)N2C(=O)C1CC1
 : 2.3, 8, 6
COCCNC(=O)C[C@@H]1C[C@H]2c3cc(N(C)C)ccc3O[C@H]2[C@@H](CO)O1
 : 4.4, 5, 1
O=C(C[C@@H]1CC[C@@H]2[C@H](COC[C@H](O)CN2Cc2cccc(Cl)c2)O1)Nc1nccs1
 : -4.5, -9, -4
CCOC(=O)c1cc2c(c(-c3cccc(-c4cccc(OC)c4)c3)n1)[C@@H](CCO)N(S(=O)C(C)(C)C)C2 (stereo not given in full)
 : -1.4, 3, 4
O=C(NCC[C@H]1CC[C@@H](NS(=O)(=O)c2ccccc2)[C@H](CO)O1)c1ccccc1F
 : 4.1, 7, 3
CO[C@H]1CN(C)C(=O)c2ccc(NC(=O)c3cc(C)on3)cc2OC[C@H](C)NC[C@@H]1C
 : 2.5, -3, -6
O=C(Nc1cccc(F)c1)N1[C@@H]2CNC[C@H]1C2c1ccc(-c2cccc(F)c2)cc1 (stereo not given in full)
 : 7.2&-2.7, 6&18, -1&21
Cc1cccc(S(=O)(=O)N(C)C[C@H]2OCc3ccccc3-c3c(n(C)c4ccccc34)C(=O)N([C@H](C)CO)C[C@@H]2C)c1
 : 4.6, -2, -7
COCC(=O)N1CC2(C1)[C@H](c1ccccc1)[C@@H](CO)N2C(=O)c1ccccc1
 : 4.1, 7, 3
COc1ccc(S(=O)(=O)Nc2ccc3c(c2)CC(=O)N([C@@H](C)CO)C[C@@H](C)[C@@H](CN(C)S(=O)(=O)c2cn(C)cn2)O3)cc1
 : -3.6, -1, 3
O=C(c1ccc2c(c1)OCO2)N1CCCCN2[C@@H](CO)[C@@H](c3ccc(-c4ccccc4)cc3)[C@@H]2C1
 : /, ?, /
C[C@H]1CCCCO[C@@H](CN(C)C(=O)c2ccccc2)[C@@H](C)CN([C@@H](C)CO)C(=O)c2cc(NC(=O)C3CCCCC3)ccc2O1
 : -1.7, -3, -1
C[C@H](CO)N1C[C@H](C)[C@H](CN(C)C(=O)Nc2cccc(F)c2)OCc2ccccc2-c2ccccc2C1=O
 : -2.0, 8, 10
COCC(=O)N1CC(=O)N2[C@H](CO)[C@H](c3ccc(C#Cc4cccnc4)cc3)[C@H]2C1
 : 10.0*, -22*, -32*
O=C(Nc1ccccc1)N1CCCCN2[C@@H](CO)[C@H](c3ccc(C4=CCCCC4)cc3)[C@@H]2C1
 : /, ?, /

In the list so far, 2 contain a Cl atom:
The line under a structure holds: DUX4 inh control, DUX4 inh, DUX4 inh difference
O=C(C[C@H]1C=C[C@@H](NC(=O)C2CCC2)[C@H](CO)O1)NCc1ccccc1Cl
 : 0.8, 2, 1
O=C(C[C@@H]1CC[C@@H]2[C@H](COC[C@H](O)CN2Cc2cccc(Cl)c2)O1)Nc1nccs1
 : -4.5, -9, -4

Next records follow.
The line under a structure holds: DUX4 inh control, DUX4 inh, DUX4 inh difference
C/C=C/c1ccc([C@H]2[C@@H](CN(C)C(=O)CC3CC3)N(C(=O)C3CC3)[C@H]2CO)cc1
 : 0.9, -3, -4
O=C(C[C@@H]1CC[C@H]2[C@@H](COC[C@H](O)CN2Cc2ccncc2)O1)NCC1CC1
 : 5.6, 5, 0
COCC(=O)Nc1ccc2c(c1)[C@H]1C[C@@H](CC(=O)N3CCOCC3)O[C@@H](CO)[C@H]1O2
 : 0.9, -1, -1
COc1cccc(-c2ccc3c(c2)[C@H]2[C@H](CCN2S(=O)(=O)c2ccccc2C)[C@H](CO)N3)c1
 : -3.5, -1, 3
C[C@@H]1CN([C@H](C)CO)C(=O)Cc2cc(NC(=O)CCCN(C)C)ccc2O[C@H]1CN(C)C
 : -1.4, 3, 4
CNC(=O)C[C@@H]1CC[C@H]2[C@@H](COC[C@@H](O)CN2Cc2ccc(C(F)(F)F)cc2)O1
 : 4.6, 6, 1
O=C(c1ccncc1)N1CC(=O)N2[C@@H](CO)[C@@H](c3ccc(C#CCC4CCCC4)cc3)[C@@H]2C1
 : -8.4, -7, 2
CC=Cc1ccc2n(c1=O)C[C@@H]1[C@@H](CO)[C@H](C(=O)N[C@H](C)c3ccccc3)[C@H]2N1CC1CC1 (mixture of isomers)
 : -0.6, -5, -4
COc1cccc(NC(=O)N2CC3(C2)[C@@H](c2ccccc2)[C@@H](CO)N3C(=O)C2CCCC2)c1
 : -7.2, -6, 1
N#Cc1ccc(-c2ccc3c(c2)[C@@H]2[C@@H](CCN2Cc2ccc4c(c2)OCO4)[C@@H](CO)N3)cc1
 : 4.4, -2, -7
C/C=C/c1ccc([C@H]2[C@@H](CO)N(C(C)=O)[C@H]2CN(C)C(=O)c2ccccn2)cc1
 : 1.3, -2, -3
COCC(=O)N1CC(=O)N2[C@@H](CO)[C@@H](c3ccc(C#Cc4cccnc4)cc3)[C@@H]2C1
 : 16, -2, -18
CO[C@@H]1CN(C)C(=O)c2cc(NS(=O)(=O)c3cn(C)cn3)ccc2OC[C@H](C)N(C)C[C@@H]1C
 : -2.9, -1, 2
CN1C(=O)c2cc(NC(=O)C3CCOCC3)ccc2OC[C@@H]2O[C@@H](CC(=O)NCc3ccc4c(c3)OCO4)CC[C@@H]21
 : 3.9, 4, 0
C[C@@H]1CCCCO[C@@H](CN(C)Cc2ccncc2)[C@@H](C)CN([C@@H](C)CO)C(=O)c2cc(NC(=O)Cc3ccccc3)ccc2O1
 : 1.2, 2, 1
CC(=O)N1[C@H](C(=O)Nc2ccccc2)[C@@H](CO)[C@@H]2Cn3c(ccc(C4=CCCC4)c3=O)[C@@H]21
 : 1.7, 6, 5
O=C(C[C@H]1CC[C@H]2[C@@H](COC[C@@H](O)CN2C(=O)Nc2ccc(F)cc2)O1)NCC1CC1
 : 4.4, 5, 1
